# Screening results: PubChem, National Center for Advancing Translational Sciences (NCATS)
# TRPML1 blocker: qHTS for Inhibitors of the Human Mucolipin Transient Receptor Potential 1 (TRPML1) | Mucolipin-1 (Homo sapiens), Q9GZU1 | TRPML1-inducible cells, Ca2+ dye fluorescence, FDSS; active compounds read low; inhibition of EC80 agonist-evoked calcium signal | activity change, negative = inhibition, % (concentration not given with the values) | hit rate 0.02% among 390,000; in the data active means activity change below about -50%; inconclusive means about -30% to -50%; inactive means above about -30%;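 note: stimulus is agonist 54-4 at its EC80 concentration; % is set by controls: 0 for no effect and ±100 for the full control effect; the text of the record puts the active cut at -80%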
# Target sequence (Q9GZU1 whole entry, looked up): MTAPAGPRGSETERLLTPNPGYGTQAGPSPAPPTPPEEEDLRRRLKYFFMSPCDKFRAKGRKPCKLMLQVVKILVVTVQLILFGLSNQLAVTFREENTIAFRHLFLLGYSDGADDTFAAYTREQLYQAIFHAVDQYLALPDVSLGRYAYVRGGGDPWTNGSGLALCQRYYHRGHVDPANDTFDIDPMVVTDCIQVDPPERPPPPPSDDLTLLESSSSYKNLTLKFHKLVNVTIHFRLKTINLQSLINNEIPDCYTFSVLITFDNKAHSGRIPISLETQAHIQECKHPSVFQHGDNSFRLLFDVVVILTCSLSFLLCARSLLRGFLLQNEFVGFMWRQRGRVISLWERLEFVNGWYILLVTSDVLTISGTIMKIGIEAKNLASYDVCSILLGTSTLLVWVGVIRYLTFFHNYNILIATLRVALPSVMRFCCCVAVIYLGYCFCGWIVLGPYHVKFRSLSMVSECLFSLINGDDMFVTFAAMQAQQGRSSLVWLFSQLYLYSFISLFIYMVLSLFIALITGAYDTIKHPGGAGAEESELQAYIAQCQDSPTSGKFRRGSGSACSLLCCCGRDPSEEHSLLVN
#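 TRPML1-DL cells, Tet-induced overnight (~16 h, 37 °C) at 1,500 cells/well, were loaded with Ca8 no-wash dye plus quencher for 45-90 min at room temperature. Compounds were pinned during FDSS kinetic reading; agonist 54-4 at EC80 (4 uM final) then added.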
# CtBP-E1A inh: qHTS Assay for Inhibitors of the CtBP/E1A Interaction; activity change, % (no concentration beside the values); AlphaScreen GST-E1A/His-CtBP binding, 1536-well; active compounds read low; control for the full effect not named in the record; hit rate 0.49% among 340,000; in the data active means activity change below about -65%; inconclusive means about -30% to -65%; inactive means above about -30%; note: % is set by controls: 0 for no effect and ±100 for the full control effect
#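 AlphaScreen with 125 nM GST-E1A and 125 nM His-CtBP (5X stocks) in Tris pH 8.0, 300 mM NaCl, BSA, Tween 20, TCEP. Compounds preincubated 2 h at 37 deg C, then glutathione donor/nickel acceptor beads added for 1 h at 37 deg C in dark.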
# D2 PAM: Beta-Arrestin HTS for Positive Allosteric Modulators of the Human D2 Dopamine Receptor: Potentiators | hit rate 0.23% among 360,000 | potentiation, % (concentration not given with the values) | D(2) dopamine receptor (Homo sapiens), P14416 | DiscoveRx D2 beta-arrestin cells, luminescence, 90 min; 100% = 57 uM dopamine signal | AID 624464, 2012; active = potentiation of 50% or more; inconclusive = 30% to 50%; inactive = 30% or less;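 note: compound concentration not given in the record; tested on top of an EC20 dose of dopamine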
# Target sequence (P14416 whole entry, looked up): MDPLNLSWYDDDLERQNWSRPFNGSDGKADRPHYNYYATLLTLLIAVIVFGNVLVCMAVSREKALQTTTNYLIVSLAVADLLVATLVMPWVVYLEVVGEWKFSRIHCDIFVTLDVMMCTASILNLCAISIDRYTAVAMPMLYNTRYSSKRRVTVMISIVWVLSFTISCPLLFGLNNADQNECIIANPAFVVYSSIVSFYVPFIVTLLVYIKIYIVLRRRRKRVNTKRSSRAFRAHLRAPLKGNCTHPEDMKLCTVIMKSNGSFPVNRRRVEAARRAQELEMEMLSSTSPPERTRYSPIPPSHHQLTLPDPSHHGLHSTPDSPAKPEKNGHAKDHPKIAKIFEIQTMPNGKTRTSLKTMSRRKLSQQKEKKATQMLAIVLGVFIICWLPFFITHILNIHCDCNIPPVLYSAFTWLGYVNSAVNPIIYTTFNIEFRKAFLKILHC
#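 D2 cells co-treated with compound plus 50 nM dopamine (EC20) for 90 min at 37 deg C to detect potentiation. Beta-arrestin recruitment was read as enzyme-fragment luminescence after 1 h at ambient temperature. Full response was set by 57 uM dopamine.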
# TRPV1 potentiator: HTS Assay for Compounds that Act as Potentiators of the Vanilloid Receptor 1 | potentiation, % at 8.33 µM | AID 540277, 2011 | hit rate 0.02% among 320,000 | TRPV1-expressing cells, Fluo-8 calcium influx, capsaicin EC20 potentiation; host cell line not named in the record; control for the full effect not named in the record; active means potentiation above 80%; inconclusive means 30% to 80%; inactive means below 30%; note: 0% is about no effect
#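 Cells expressing TRPV1 were dye-loaded with Fluo-8 and read kinetically: 10 s baseline, 3 min after compound (agonist portion), then 2 min after EC20 capsaicin (allosteric enhancer portion). Calcium-bound dye fluorescence at 480/520 nm.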
# Six1-Eya2 inh: qHTS Assay for Inhibitors of the Six1/Eya2 Interaction. Homeobox protein SIX1 (Homo sapiens) + Protein phosphatase EYA2 (Homo sapiens), …. AlphaScreen GST-Six1/His-Eya2 binding, biochemical; active compounds read low; control for the full effect not named in the record. activity change, % (test concentration not listed). hit rate 0.56% among 360,000. AID 651725, 2012; in the data active = activity change below about -65%; inconclusive = about -30% to -65%; inactive = above about -30%; note: % is set by controls: 0 for no effect and ±100 for the full control effect
#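 Homogeneous AlphaScreen proximity assay pairing GST-Six1 with His-tagged Eya2 (added as 5X mix: 250 nM and 500 nM) in 50 mM Tris pH 8.0, 300 mM NaCl, 1 mM TCEP. Glutathione donor and nickel acceptor beads; 1 h, 37 °C, dark.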
# TRPML1 agonist: qHTS for Agonists of the Human Mucolipin Transient Receptor Potential 1 (TRPML1). TRPML1-expressing cells, Ca2+ dye fluorescence, FDSS; host cell line not named in the record; reference of the full effect not given here. activation, % (test concentration not listed). hit rate 0.12% among 410,000. AID 624414, 2012; in the data active = activation above about 50%; inconclusive = about 30% to 50%; inactive = below about 30%; note: 0% is about no effect; the text of the record puts the active cut at 80%
#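 Cells: TRPML1-DL, 1X Tet inducer, ~16 h at 37 degrees C/5% CO2. Dye: ABD Ca8 no-wash + quencher, 45-90 min RT. Read: 10 s baseline, compound add, 110 s agonist phase; 54-4 EC80 (4uM final), 110 s antagonist phase.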
# Starred values were filed as active, the others as inactive; ? = inconclusive; nt = not tested or not shown. An unsorted share of the library; any-hit rate near 0.95%.
SMILES,TRPML1 blocker,CtBP-E1A inh,D2 PAM,TRPV1 potentiator,Six1-Eya2 inh,TRPML1 agonist
CCN(CC)S(=O)(=O)c1cccc(NC(=O)/C=C/c2ccc([N+](=O)[O-])cc2)c1,13.7,-6.5,-3.0,-0.9,6.3,0.1
Cc1ccc(NCc2nnc(SCC#N)o2)c(C)c1,7.3,-7.6,-6.1,-4.5,-5.3,0.3
COC(=O)[C@]1(Cc2ccccc2)N[C@H](CN(C)S(=O)(=O)c2ccc(F)cc2)[C@@H]2C(=O)N(Cc3ccccc3)C(=O)[C@@H]21,23.4,-5.1,nt,nt,1.6,1.8
CC(=O)Oc1ccc(C(=O)Nc2ccccc2C(=O)Nc2ccc(C(=O)O)cc2)cc1,15.2,-1.6,3.0,9.7,-1.7,1.3
CCOC(=O)CNC(=O)COc1ccc(Cl)cc1Br,-1.5,-0.1,-5.3,-7.0,1.5,0.3
CCOC(=O)Cc1csc(SCC(=O)Nc2sc3c(c2C(N)=O)CCC3)n1,-10.2,-5.2,-2.5,4.1,-27.1,-0.3
CN(C(=O)c1cccc(C(F)(F)F)c1)C1CCCc2ccccc21 (stereo not given),-6.7,2.8,-5.5,-5.8,11.4,2.5
C=CCSc1ncc(-c2ccccc2)cn1,3.4,23.6,-10.0,-1.6,19.3,0.5
CCCCNc1c(CC(C)C)nc2nc(C)cc(C)n12,nt,-3.8,nt,nt,3.5,-0.9
S=C(Nc1ccccc1Cl)NC1CCN(Cc2ccccc2)CC1,-19.1,5.4,-37.7,-2.6,-10.1,1.8
Clc1ccccc1CSc1nc2ccncc2[nH]1,-0.1,4.9,-0.8,13.6,4.9,0.7
Cn1cnc2c1c(=O)n(Cc1ccccc1C#N)c(=O)n2C,16.9,-0.1,-12.9,17.1,2.1,-0.5
Cc1nc2sccn2c(=O)c1S(=O)(=O)NCCc1ccc(Cl)cc1,-3.8,2.7,-3.6,3.4,6.6,-0.7
COc1ccc(-c2cc(-c3c(O)c(OC)c4occc4c3OC)[nH]n2)cc1,6.3,?,-15.8,5.1,-28.5,1.2
CCCn1c(CN2CCN(C(=O)OCC)CC2)nc2cc(NC(=O)C(C)C)ccc21,0.8,-3.2,-10.0,-4.1,6.8,0.3
COc1ccccc1N1CCN(C(=O)C(=O)N/N=C/c2ccccc2F)CC1,11.0,11.9,-19.5,?,-5.4,-0.4
O=C(N/N=C/c1ccc(O)cc1O)c1ccc(NC(=O)C2CCCCC2)cc1,13.3,-89.8*,3.0,1.5,-71.7*,1.4
Cc1nc2cc(Cl)c(Cl)cc2n1-c1ccccn1,13.9,3.0,-5.4,1.1,6.0,-0.6
COc1ccc(N2C(=O)C(Cl)=C(Nc3c(C)n(C)n(-c4ccccc4)c3=O)C2=O)cc1,-11.0,2.2,-5.2,9.5,-0.1,0.1
O=C(CSc1c[nH]c2ccccc12)N1CCCc2ccccc21,9.9,0.0,2.5,-6.6,14.7,2.3
COc1ccccc1C(=O)NCCC(=O)Nc1cccc(C)n1,14.0,4.8,-10.5,-1.1,0.4,-0.2
Nc1nc(-c2ccco2)nn1C(=O)c1cccnc1,27.2,-9.1,16.7,-0.4,1.4,0.7
Cc1ccc(C(=O)N/C(=C\c2ccc(-c3ccc([N+](=O)[O-])cc3)o2)C(=O)NC2CCS(=O)(=O)C2)cc1 (stereo not given),-7.1,6.2,29.3,9.0,-3.6,12.2
Cc1ccoc1C(=O)Nc1cccc2ccccc12,nt,nt,3.2,-17.5,13.3,nt
COc1cc([N+](=O)[O-])ccc1NC(=O)CSc1n[nH]c(C(C)C)n1,28.1,-1.0,-0.6,13.7,-3.7,-0.6
SMILES,TRPML1 blocker,CtBP-E1A inh,D2 PAM,TRPV1 potentiator,Six1-Eya2 inh,TRPML1 agonist
CC1S/C(=N/N=C/c2ccco2)N(Cc2ccc(F)cc2)C1=O (stereo not given),48.3,nt,-21.4,-3.3,-3.8,1.4
COc1ccccc1NC(=O)c1nnn(CC(=O)Nc2cc(C)cc(C)c2)c1N,16.3,nt,-11.6,5.2,5.9,0.0
CC(=O)c1csc(COc2cc(Cl)cc(Cl)c2)n1,2.5,18.4,-2.8,-0.3,47.9,2.7
Cc1ccc(Cl)cc1NC(=O)Cn1cccc1,12.4,0.4,-6.5,5.7,-1.9,0.3
COC(=O)c1ccc(CSc2cc(C)c3cccc(C)c3n2)o1,41.3,4.5,-11.1,17.8,13.9,1.6
CCC(=O)c1c[nH]c(C(=O)NCc2ccco2)c1,-2.5,0.0,-8.7,-17.6,-9.6,-0.6
O=C(c1ccccc1)N1CCN(S(=O)(=O)N2CCOCC2)CC1,6.9,3.9,-1.9,6.6,5.4,1.1
Cc1cc(=O)oc2cc(OCC(=O)NCCc3nc4ccccc4[nH]3)ccc12,1.4,-9.1,-2.9,21.3,-1.4,0.3
CCC(C)NC(=O)CSc1ncccc1C(=O)O (stereo not given),11.3,7.8,-0.8,1.2,4.2,0.7
Cc1ccc(-c2nn(CCC#N)cc2C=C(C#N)C#N)cc1,-5.2,-5.8,-15.0,-1.3,-10.0,0.0
COc1ccc(Nc2ccc(N3C(=O)CC(C)C3=O)cc2[N+](=O)[O-])cc1OC (stereo not given),-2.7,-9.6,-3.3,4.3,0.0,-0.8
CCOC(=O)CSc1nc(C2CC2)cc(-c2ccc(Cl)cc2)c1C#N,46.0,21.7,-7.0,-8.8,21.3,0.2
CCOc1ccc(S(=O)(=O)N(CC(=O)Nc2cc(C)on2)Cc2ccccc2Cl)cc1,-4.3,5.5,-5.5,5.4,-7.0,1.9
CC(C)CC(COCc1cccc(Cl)c1)N1CCN(C(=O)c2ccc(C(F)(F)F)cc2)CCC1=O (stereo not given),7.1,3.7,4.2,1.0,-6.4,-1.1
CCC(C)[C@H](NC(=O)NC1CCCc2ccccc21)C(=O)O (stereo not given in full),-28.8,6.9,-8.1,-4.3,2.5,0.2
Cc1cccc(NC(=O)CC2C(=O)NCCN2C(=O)Nc2ccc(Cl)cc2)c1 (stereo not given),34.7,-7.1,2.7,1.0,-3.3,0.1
CCCCNC(=O)C1CC(c2ccc(C(F)(F)F)cc2)=NO1 (stereo not given),6.8,5.4,-5.2,5.2,0.6,-1.1
COc1ccc(CNCCSc2nnnn2C)cc1OC,0.1,4.3,5.7,0.0,1.2,1.0
Cc1ccc(S(=O)(=O)CCC(=O)OCC(=O)N2CC(=O)Nc3ccccc32)cc1,4.7,9.0,-15.0,16.8,0.4,0.2
COc1ccc(C(=O)c2ccccc2)c(OCC(=O)N(C)C)c1,16.1,nt,-5.9,9.6,-3.2,0.2
COc1ccc(-n2nc3c(c2NC(=O)COc2ccccc2OC)CS(=O)(=O)C3)cc1,-6.1,17.2,10.4,nt,19.9,0.0
COc1ccc(NS(=O)(=O)c2ccc(C)c(C(=O)N(C)Cc3ccc(C)cc3)c2)cc1,21.0,-16.6,5.7,-17.0,-3.9,2.1
COc1cccc(C(=O)Nc2sc(C(C)C)cc2C(N)=O)c1OC,22.2,-11.7,6.4,11.6,-2.8,0.7
Cc1cccc(C)c1NC(=O)CSc1nnc(C)n1CC1CCCO1 (stereo not given),0.1,nt,-2.9,-0.7,-7.4,0.8
COc1ccccc1C(=O)Nc1ccc(OCc2nnc3c4ccccc4c(C)nn23)cc1,38.0,-27.3,9.9,3.5,-25.3,1.3
SMILES,TRPML1 blocker,CtBP-E1A inh,D2 PAM,TRPV1 potentiator,Six1-Eya2 inh,TRPML1 agonist
COC(=O)CN1C(=O)S/C(=C/c2ccc(N3CCCCC3)o2)C1=O,-3.7,22.7,-6.3,-7.3,-0.5,18.3
COC(=O)[C@@]1(Cc2ccc(OC)cc2)[C@H]2c3cc(C(=O)N4CCCC4)n(CCSCCO)c3C[C@H]2CN1C(=O)c1ccccc1,-4.6,-0.6,-3.9,13.7,-3.0,0.1
Cc1c(C(=O)NNC(=O)c2ccncc2)oc2ccc(Br)cc12,13.4,-22.5,-22.3,-18.2,0.8,0.7
Cn1cnc(S(=O)(=O)N2CCCCC2c2cc(C(=O)Nc3cccc4c3CCCC4)no2)c1 (stereo not given),0.9,0.7,0.3,nt,-0.6,0.4
COc1cnc(SCCC(F)=C(F)F)[nH]c1=O,-8.9,-0.9,0.3,-1.7,-6.4,1.5
CN(C)S(=O)(=O)c1ccc(N2CCOCC2)nc1,-5.0,-4.3,-8.0,2.2,1.5,-0.1
C=CCn1c(SCC(=O)Nc2sccc2C#N)nc2sc(C)c(C)c2c1=O,-6.8,11.1,-11.8,?,-4.6,-0.4
CCCC(=O)Nc1ccccc1-c1nnn(CC(=O)Nc2ccc(OCC)cc2)n1,-8.7,-1.0,-2.8,-7.1,-3.6,-0.9
O=C(/C=C/[C@H]1O[C@@H](n2cnc3c(NC(=O)c4ccccc4)ncnc32)[C@H](O)[C@@H]1O)NCC1CCCO1 (stereo not given in full),-5.0,-22.7,-8.4,nt,12.8,2.6
Cn1cc([N+](=O)[O-])c(C(=O)N/N=C/c2ccc3c(c2)OCO3)n1,29.6,2.1,-2.3,-4.7,-4.4,-0.4
CCOc1ccc(N(CC(=O)O)S(=O)(=O)c2ccc(F)cc2)cc1,1.0,-1.3,-4.8,16.3,10.2,-0.4
O=C(Nc1cccc2c(=O)[nH][nH]c(=O)c12)c1ccc([N+](=O)[O-])cc1,nt,-17.8,5.6,nt,-27.5,-0.8
O=C(OCCN1CCCCC1)c1c[nH]c2ccccc12,5.8,5.5,-24.8,-3.0,2.3,1.2
CCN1C(=O)C(=O)N(CC(=O)Nc2ccccc2Oc2ccccc2)C1=O,6.6,-19.1,-6.3,-6.0,10.8,-0.2

# Four entries from above, with values under each structure.
# Each structure is followed by: TRPML1 blocker	CtBP-E1A inh	D2 PAM	TRPV1 potentiator	Six1-Eya2 inh	TRPML1 agonist
- COC(=O)[C@@]1(Cc2ccc(OC)cc2)[C@H]2c3cc(C(=O)N4CCCC4)n(CCSCCO)c3C[C@H]2CN1C(=O)c1ccccc1
→ -4.6	-0.6	-3.9	13.7	-3.0	0.1
- Cc1c(C(=O)NNC(=O)c2ccncc2)oc2ccc(Br)cc12
→ 13.4	-22.5	-22.3	-18.2	0.8	0.7
- COc1cnc(SCCC(F)=C(F)F)[nH]c1=O
→ -8.9	-0.9	0.3	-1.7	-6.4	1.5
- O=C(/C=C/[C@H]1O[C@@H](n2cnc3c(NC(=O)c4ccccc4)ncnc32)[C@H](O)[C@@H]1O)NCC1CCCO1 (stereo not given in full)
→ -5.0	-22.7	-8.4	nt	12.8	2.6

# Random excerpt: 2 entries already listed
SMILES,TRPML1 blocker,CtBP-E1A inh,D2 PAM,TRPV1 potentiator,Six1-Eya2 inh,TRPML1 agonist
Cc1ccc(NCc2nnc(SCC#N)o2)c(C)c1,7.3,-7.6,-6.1,-4.5,-5.3,0.3
CCOc1ccc(S(=O)(=O)N(CC(=O)Nc2cc(C)on2)Cc2ccccc2Cl)cc1,-4.3,5.5,-5.5,5.4,-7.0,1.9
